From PubChem BioAssay
HNF4A DNA FP: change in binding of human HNF4A to DNA, primary screen, biochemical, fluorescence polarization, FITC-DNA; 1 h; hit rate 0.3% among 360,000; activity change, % at 10 µM; Hepatocyte nuclear factor 4-alpha (Homo sapiens), P41235; in the data active means activity change above about 30%, passing the limit was not always enough;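 further: controls were the assay level and a saturating level of protein; the project sought stronger binding though the title names inhibitors; some compounds called inactive have numbers as strong as hits; positive values seem to mean higher polarization but the record does not say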
FGF22 binding: binders of human FGF22 protein, primary screen, FGF22 synaptogenesis inhibitor project, biophysical, thermal shift, single point; Fibroblast growth factor 22 (Homo sapiens), Q9HCT0; calls only at 9.99 µM; hit rate 1.5% among 340,000; recombinant FGF22 thermal shift, SYPRO orange fluorescence; percent of sucrose octasulfate shift, DMSO zero; AID 651658, 2012;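 active means melting point raised past a set limit in the mean and every replicate; three in four hits are not shown here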
E coli growth: E. coli growth inhibition, primary screen, OD600. Escherichia coli growth, 23 h; active compounds read low. OD600 absorbance (concentration not given with the values). hit rate 0.21% among 330,000. AID 1053175, 2014;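 active means OD600 absorbance below the run mean of sample wells minus 3.6 SD, in any replicate, cut at about 0.56 in these data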;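 further: stock transfer was 300 nL into about 60 µL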
LANA-H2B inh: blockers of LANA interaction with H2A/H2B – biochemical, FP readout, HTS, primary screen; hit rate 0.6% among 320,000; Protein LANA1 (Human herpesvirus 8 type P (isolate GK18)), Q9QR71; inhibition, % (concentration not given with the values); cell-free LANA-H2A/H2B peptide, fluorescence polarization; in the data active means inhibition mostly above about 10%, no sharp cut-off; inactive means mostly below about 6.7%;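 further: stock transfer was 7.5 nL into about 10 µL; 0% = median of vehicle wells and 100% = median of positive control wells; one replicate is shown; the record names a cut of 25% in any replicate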
Target sequence (Q9QR71 whole entry, looked up): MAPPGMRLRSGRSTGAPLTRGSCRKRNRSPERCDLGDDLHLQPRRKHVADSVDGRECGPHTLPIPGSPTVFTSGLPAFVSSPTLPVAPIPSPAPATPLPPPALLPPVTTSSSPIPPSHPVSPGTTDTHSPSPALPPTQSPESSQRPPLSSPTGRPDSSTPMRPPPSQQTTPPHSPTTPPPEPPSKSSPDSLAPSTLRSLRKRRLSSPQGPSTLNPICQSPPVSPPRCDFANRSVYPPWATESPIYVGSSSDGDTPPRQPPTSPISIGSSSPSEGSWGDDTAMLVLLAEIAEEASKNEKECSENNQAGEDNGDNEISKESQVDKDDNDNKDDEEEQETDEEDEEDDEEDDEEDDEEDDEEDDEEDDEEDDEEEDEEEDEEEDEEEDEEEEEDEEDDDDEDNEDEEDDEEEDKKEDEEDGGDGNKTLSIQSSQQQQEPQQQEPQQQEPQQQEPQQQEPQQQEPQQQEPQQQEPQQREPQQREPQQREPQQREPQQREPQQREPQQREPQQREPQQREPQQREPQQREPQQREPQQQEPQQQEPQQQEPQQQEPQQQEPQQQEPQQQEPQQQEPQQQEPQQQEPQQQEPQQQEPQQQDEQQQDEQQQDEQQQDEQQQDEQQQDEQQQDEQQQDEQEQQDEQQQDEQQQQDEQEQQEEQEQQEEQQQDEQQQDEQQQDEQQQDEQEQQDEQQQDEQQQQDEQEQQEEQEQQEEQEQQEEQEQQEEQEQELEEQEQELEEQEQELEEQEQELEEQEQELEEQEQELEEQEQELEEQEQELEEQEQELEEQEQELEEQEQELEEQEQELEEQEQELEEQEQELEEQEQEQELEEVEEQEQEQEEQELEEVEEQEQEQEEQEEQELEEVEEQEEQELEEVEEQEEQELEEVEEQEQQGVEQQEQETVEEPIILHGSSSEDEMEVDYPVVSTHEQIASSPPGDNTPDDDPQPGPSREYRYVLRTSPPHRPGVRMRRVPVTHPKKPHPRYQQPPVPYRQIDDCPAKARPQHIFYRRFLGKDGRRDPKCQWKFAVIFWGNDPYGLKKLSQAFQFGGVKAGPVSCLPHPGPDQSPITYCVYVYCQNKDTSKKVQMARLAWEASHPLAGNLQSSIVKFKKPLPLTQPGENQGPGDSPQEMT
UCH37 DUB inh: inhibitors of human UCH37 deubiquitinase, primary screen, biochemical, Ub-AMC cleavage, fluorescence; purified proteasome/UCH37; inhibition, % (test concentration not listed); hit rate 0.33% among 330,000; AID 588478, 2011;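 active means mean of two replicates above 20%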;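 further: 0% = compound-free wells with enzyme and 100% = wells lacking proteasome; stock transfer was 100 nL into about 20 µL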
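Assay system: Proteasome-bound UCH37. Buffer or medium: pH 7.4 Tris-HCl (50 mM) with ovalbumin, ATP-MgCl2, DTT. Incubation: 30 min preincubation with enzyme, 25 min cleavage at room temperature. Measured by: fluorescence, ex 355 nm, em 460 nm. Read-out basis: percent inhibition. Control set: wells without proteasome as full block, compound-free enzyme plus substrate as uninhibited.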
B2AR ag: beta2AR agonists driving receptor internalization, primary screen, cell-based, FAP fluorogen, flow cytometry | Beta-2 adrenergic receptor (Homo sapiens), P07550 | Am2.2-beta2AR cells; reference of the scale not given here | response, % (no concentration beside the values) | hit rate 0.43% among 340,000;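 active means response above a set limit, near 3 SD of response in nonfluorescent compounds, cut at about 42% in these data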;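 further: stock transfer was 100 nL into about 11 µL; a reference agonist was the positive control; negative values mostly stem from fluorescent compounds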
ALR H2O2 inh: inhibitors of human ALR sulfhydryl oxidase, primary screen, biochemical, H2O2 detection, HRP-luminol luminescence, single point; FAD-linked sulfhydryl oxidase ALR (Homo sapiens), P55789; hit rate 3.8% among 290,000; inhibition, % (concentration not given with the values); purified ALR, DTT oxidation;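 active means mean and each replicate at 75% or more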;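 further: stock transfer was 7.5 nL into about 7.5 µL; 0% = neutral wells and 100% = wells with inactivated enzyme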
The depositor's hits bear a star; i = inactive; · = not tested or not shown. This is a subset; count on the stated rates, not on these rows.

SMILES	HNF4A DNA FP	FGF22 binding	E coli growth	LANA-H2B inh	UCH37 DUB inh	B2AR ag	ALR H2O2 inh
Cc1ccc(C2c3[nH]c4ccccc4c3C[C@H]3C(=O)N(c4ccccc4C(=O)N4CCC(C(=O)O)CC4)C(=O)N23)cc1 (stereo partly specified)	1.1	i	0.781	-3.3	4.8	-1.9	15.9
O=C(COc1ccc(F)cc1)NN1C(=O)CSC1=S	36.1	i	0.711	4.4	3.5	-0.9	23.7
Cc1ccc2c(c1)NC(=O)C(CC(=O)NCCCN1CCc3ccccc3C1)O2 (stereo unspecified)	-2.6	i	0.756	1.4	1.2	1.2	·
COc1ccc(CCn2c(-c3ccncc3)n[nH]c2=S)cc1OC	-6.5	i	0.684	0.4	-0.2	2.9	·
O=C(CCCCCN1C(=O)c2ccccc2C1=O)Nc1cccc(O)c1	1.8	i	0.634	-0.8	0.5	3.5	7.8
Cc1cnc(C(=O)OCC(=O)Nc2cccc(C)c2C)cn1	0.3	i	0.668	2.8	0.2	4.3	12.3
O=C(Cc1cccs1)NCCCc1ccccc1	-0.2	i	0.687	0.4	1.0	-9.1	-25.4
O=C(CCSCc1ccccc1F)N1CCN(c2ccccn2)CC1	3.2	i	0.725	3.0	4.3	-9.1	0.4
O=C(NCC1(c2ccccc2)CCCC1)c1ccccc1	-2.5	i	0.693	0.0	1.7	-3.5	1.8
COc1ccc(C2=NOC(C(=O)Nc3ccc(C)cc3)C2)cc1OC (stereo unspecified)	0.8	·	0.692	-0.5	3.7	-1.0	-9.7
O=C(NCc1cccc(Cl)c1)C1CCC(=O)N(CCCN2CCOCC2)C1 (stereo unspecified)	-0.9	i	0.668	·	1.7	-1.3	·
CCCC1(CC)C(=O)NC(=O)N=C1N (stereo unspecified)	-2.1	i	0.707	·	5.3	-4.1	·
COc1ccc(F)cc1S(=O)(=O)NCc1cc(=O)n(C)c(=O)n1C	-0.2	i	0.662	1.4	3.9	1.0	-1.9
O=C(Nc1cccc(O)c1)c1cc(-c2ccco2)on1	1.7	·	0.664	0.7	3.9	4.5	·
CCOc1ccccc1N(CC(=O)NCC1CCCO1)C(=O)CCC(=O)Nc1nccs1 (stereo unspecified)	1.5	i	0.7	3.2	0.5	-3.7	-2.4
CCOC(=O)/C(=N\Nc1ccc(Br)cc1)N1CCN(c2ccccc2OC)CC1	1.0	i	·	·	·	3.9	·
Cc1cc(C)n(C(=O)c2cc3c(s2)CCCC3)n1	1.9	·	0.71	-4.1	3.9	3.1	4.7
CC1=NN(c2nc(-c3ccc(C)cc3)cs2)C(=O)C1N=Nc1ccc2ccccc2c1 (stereo unspecified)	1.3	·	0.764	-2.4	7.6	-2.0	-11.1
N#Cc1c(-c2ccco2)cc(-c2ccccn2)nc1N	2.4	·	0.71	16.3	-365.2	15.4	-4.1
CCOC(=O)c1sc(N2C(=O)C(O)=C(C(=O)c3ccco3)C2c2ccc(C)o2)nc1C (stereo unspecified)	3.4	i	0.702	9.1	9.0	9.5	0.8
CCc1cc(/C(Cc2csc(C)n2)=N/O)c(O)cc1O	-0.8	·	·	0.8	·	1.9	38.2
COc1cc(Cl)c(C)cc1NC(=O)CNC(=O)Cn1cnc2ccccc2c1=O	-2.2	·	0.726	3.7	2.4	1.5	2.3
CN(C(=O)CSc1nc2ccccc2n1CCc1ccccc1)C1CCS(=O)(=O)C1 (stereo unspecified)	2.2	·	0.676	-4.3	1.4	-5.5	-8.7
CCCOC(=O)c1c(NC(=O)CCCn2nc([N+](=O)[O-])c(Cl)c2C)sc(C(=O)OC)c1C	-2.2	·	0.696	-0.6	6.4	-7.8	0.4
COc1cc2cc(Oc3ccc4ccc(=O)oc4c3)c(=O)oc2cc1O	-0.8	i	0.738	2.6	-20.8	4.6	8.1
Cc1cccnc1NC(=O)C1CCN(S(=O)(=O)c2cccs2)CC1	0.4	·	0.726	-3.6	6.6	-1.3	-11.1
CCCCCN(C(=O)COC(=O)Cc1c(C)nc2ccccc2c1C)c1c(N)n(CCCC)c(=O)[nH]c1=O	1.7	i	0.69	-3.4	2.5	1.2	-0.6
CCOC(=O)C1CCN(C(=O)CN2C(=O)COc3ccc(C(C)(C)C)cc32)CC1	0.6	i	0.702	-0.9	2.2	-3.7	-0.6
O=C(O)CNC(=O)C12CC3CC(CC(Cl)(C3)C1)C2	-1.2	i	0.634	2.6	1.1	-3.8	-2.5
C[C@H](CO)N1C[C@H](C)[C@@H](CN(C)S(=O)(=O)c2ccccc2)Oc2ccc(NS(=O)(=O)c3ccccc3)cc2C1=O	-1.9	i	0.72	·	3.7	9.7	·
COc1ccc(CNC(=O)C2CC(c3cccc(OC)c3)=NO2)cc1 (stereo unspecified)	0.5	·	0.734	0.8	0.6	19.5	-4.8
CCN(CC)C1CC(=O)N(c2ccc(Br)cc2)C1=O (stereo unspecified)	3.6	i	0.62	0.6	0.6	-0.7	3.1
CCCN1CCN(CC(O)COC(c2ccc(OC)cc2)c2ccc(OC)cc2)CC1 (stereo unspecified)	4.2	i	0.675	-8.1	3.7	4.1	·
CCn1c(O)c(/C=N/n2cnnc2)sc1=S	6.6	·	0.69	-0.4	8.3	32.7	98.2*
CCOc1ccc(NC(=O)C2C(c3ccccc3)C2(Cl)Cl)cc1 (stereo unspecified)	0.7	i	0.698	5.1	2.5	13.5	1.1
CCC(CO)Oc1cc(NCc2ccc(C(C)(C)C)cc2)c2ncn(C(C)C)c2c1 (stereo unspecified)	0.1	i	0.692	0.7	6.9	-9.5	-19.2
Cc1cccc(C)c1NC(=O)N1CCCC1C(=O)Nc1ccc(-n2cnnn2)cc1 (stereo unspecified)	0.5	i	0.7	4.1	-2.5	-3.7	14.9
O=C(Nc1cccc(C(=O)O)c1)/C(=C/c1ccc2c(c1)OCO2)NC(=O)c1cccc(Br)c1	-0.7	i	0.668	-0.9	9.1	-0.6	28.0
COCc1c(C(=O)N/N=C(/C)c2ccc(OCc3ccccc3)cc2)nnn1-c1nonc1N	-0.3	i	·	2.1	·	-0.5	-12.1
O=C(Nc1ccc(N2CCOCC2)cc1)c1cnccn1	2.5	i	0.645	1.0	8.7	-6.2	11.9
C(=Nc1ccccc1)c1ccc[nH]1	4.3	i	0.667	·	-0.3	9.3	·
O=C(O)c1ccc(-n2c(=O)c3ccccc3c3ccccc3c2=O)cc1	-1.1	i	0.682	2.2	-0.1	-6.3	52.8
Cc1ccc(S(=O)(=O)N(CC(=O)Nc2ccccc2)C(=O)N2CCN(C)CC2)cc1	4.0	i	0.608	-3.0	2.9	-7.6	-2.8
OC(CNCc1ccc2c(c1)OCO2)COc1ccc(F)cc1 (stereo unspecified)	2.3	i	0.645	0.2	2.7	-18.0	-1.3
COC(=O)c1c(C)[nH]c(C(=O)/C=C/c2ccc(Cl)cc2)c1C	-2.9	·	0.647	·	-1.8	5.3	·
Cc1nn(Cc2ccccc2)c(C)c1NC(=O)CCC(=O)O	-2.7	·	0.729	3.5	-1.3	9.2	-5.6
CC1CC(C)CN(CCC(=O)Nc2cccc(Cl)c2)C1 (stereo unspecified)	0.1	·	0.693	1.3	1.6	-0.6	-0.6
O=C(Nc1ccccc1O)c1ccccc1O	0.1	·	0.478*	1.5	3.5	8.6	52.9
COc1cc(C(=O)N/N=C(\C)Cn2nc([N+](=O)[O-])cc2C)ccc1O	1.9	·	·	-3.4	·	-7.7	83.0*
COc1ccc(CNC(=O)COC(=O)C2CC2C)cc1OC (stereo unspecified)	4.8	·	0.652	1.9	2.8	11.8	-5.6

Going on with the list:
SMILES	HNF4A DNA FP	FGF22 binding	E coli growth	LANA-H2B inh	UCH37 DUB inh	B2AR ag	ALR H2O2 inh
Cc1[nH]c2ccccc2c1/C=C/C(=O)c1ccccc1	23.6	·	·	3.1	-2.3	-20.5	-1.3
Cc1cc(C)c2nc(SCC(=O)NNC(=O)c3ccco3)c(C)cc2c1	-2.2	i	0.693	-7.6	0.6	4.4	-8.0
COC(=O)c1sccc1S(=O)(=O)Nc1ccc(C)cc1	3.6	i	0.696	3.2	2.3	3.3	1.4
CC1CC(NC(=O)/C=C/C(=O)O)CC(C)(C)C1 (stereo unspecified)	3.0	i	0.654	-3.9	5.4	0.4	-6.5
CN(C)CCCNC(=S)N(Cc1cccs1)Cc1cc2cc3c(cc2[nH]c1=O)OCCO3	11.6	·	0.702	4.0	-141.8	14.0	-9.3
Cc1cccc(C)c1NC(=O)CN(C)CC(=O)c1c(N)n(Cc2ccccc2)c(=O)n(C)c1=O	-0.9	i	0.674	0.9	0.0	9.6	2.0
CCN(CC)S(=O)(=O)c1ccc(Cl)c(NC(=O)COC(=O)c2cccn2C)c1	1.4	i	0.665	3.5	1.1	-3.6	12.6
O=C(c1ccco1)N1CCN(C(=O)c2nn3cccnc3c2Cl)CC1	-0.6	·	0.721	-0.6	1.8	-1.4	-6.6
NC(=S)C(c1ccccc1)c1ncc(C(F)(F)F)cc1Cl (stereo unspecified)	0.5	i	0.625	-1.6	1.4	-9.6	30.0
Cc1ccccc1-c1noc(C23CC4CC(CC(C4)C2)C3)n1	1.2	·	0.712	-0.6	3.9	10.2	17.7
COc1ccc(CCNC(=O)Cn2cnc3c(cnn3-c3ccccc3Cl)c2=O)cc1OC	-0.7	·	0.678	-20.0	1.2	9.3	0.0
O=C(c1ccco1)N1CCN(C(=O)C2CCCO2)CC1 (stereo unspecified)	-1.4	·	0.642	1.8	2.0	0.7	7.9
Cc1cc(=O)[nH]c(SCC(=O)/C=C2\N(C)c3ccccc3C2(C)C)n1	7.7	·	0.676	2.1	-6.2	1.3	1.6
COc1ccc(NS(=O)(=O)c2cccc3nsnc23)cc1OC	6.8	·	0.686	-0.7	1.6	1.3	1.2
CN(Cc1cccc(F)c1)CC(O)COCc1ccccc1Cl (stereo unspecified)	-2.6	i	0.644	-2.8	5.4	-2.0	-3.9
O=[N+]([O-])c1cc(S(=O)(=O)Nc2ccc(Cl)cc2)ccc1N/N=C/c1ccncc1	-1.9	i	·	-1.1	·	-0.2	4.2
CC(=O)Nc1cccc2c1C(=O)N(c1cccc(C)c1)C2=O	1.2	·	0.703	2.9	5.7	-4.2	11.5
Cc1cc(-c2cc(-c3ccccc3)on2)nc(NCC2CC2)n1	-3.2	i	0.699	-5.7	-1.4	-4.8	0.9
CC(C)CCNC(=O)C1CCCCN1S(=O)(=O)c1ccc(F)cc1 (stereo unspecified)	17.4	i	0.664	-4.2	3.8	0.2	-10.8
CC(C)(C)c1ccc(OCCNC(=S)Nc2ccccc2)cc1	3.3	i	0.642	-2.2	-34.5	-8.8	·
Cc1ccc(OCC(=O)N2CCN(S(=O)(=O)c3ccc(Cl)cc3)CC2)c([N+](=O)[O-])n1	-0.6	·	0.685	-0.7	1.1	-10.1	·
COC(=O)c1ccc(SCC(=O)NCc2ccccc2)c([N+](=O)[O-])c1	0.1	i	0.679	1.4	-0.5	5.3	3.8
CCOc1ccc(NC(=O)CN2C(=O)CSc3ccc(S(=O)(=O)N4CCCC4)cc32)cc1	3.1	i	0.69	-0.5	4.4	-2.8	-3.5

Three structures out of the list, arranged by heavy-atom count, smallest number first:
SMILES	HNF4A DNA FP	FGF22 binding	E coli growth	LANA-H2B inh	UCH37 DUB inh	B2AR ag	ALR H2O2 inh
CC(C)(C)c1ccc(OCCNC(=S)Nc2ccccc2)cc1	3.3	i	0.642	-2.2	-34.5	-8.8	·
O=[N+]([O-])c1cc(S(=O)(=O)Nc2ccc(Cl)cc2)ccc1N/N=C/c1ccncc1	-1.9	i	·	-1.1	·	-0.2	4.2
Cc1ccc(OCC(=O)N2CCN(S(=O)(=O)c3ccc(Cl)cc3)CC2)c([N+](=O)[O-])n1	-0.6	·	0.685	-0.7	1.1	-10.1	·
